MT1-MMP act inh: blockers of MT1-MMP proenzyme processing, primary screen, HT1080 RFP-PRO-GFP cells, GFP/RFP fluorescence. Matrix metalloproteinase-14 (Homo sapiens), P50281. GFP/RFP ratio fluorescence, overnight; percent of plate control window, DMSO zero. GFP/RFP ratio change, % at 20 µM. actives 0.061% (n = 360,000);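 active = GFP/RFP ratio change of at least 30% with cell ATP level not reduced by more than half and red fluorescence within 50% of control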; also: strong numbers were not always called active
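Assay system: HT1080 RFP-PRO-GFP cells. Benchmarks: DMSO vehicle wells and RFP-L50D-GFP reporter cell wells. Times: overnight cell settling, then overnight compound exposure, 37 °C, 5% CO2. Compound: 20 µM single dose, 1% DMSO. Read-out basis: GFP/RFP fluorescence ratio.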
Env fusion inh: inhibitors of HIV-1 Env-driven cell-cell fusion, primary screen, HeLa-JRFL effector, CEM21 target cells, luciferase; inhibition, % at 12.3 µM; actives 1.1% (n = 360,000); AID 651610, 2012;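 active = mean replicate inhibition score of at least 50 and every replicate individually at or above 50; inconclusive = only one of the two criteria met; inactive = mean below 50 and not all replicates reaching 50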;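 also: 0% = plate neutral controls and 100% = maraviroc near 300 nM; one replicate is shown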
CSC inhib: cancer stem cell viability inhibitors, primary screen, luminescence | cancer stem cell-like cells viability | inhibition, % at 7.5 µM | actives 1.1% (n = 300,000);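 active = mean at 75% or more and at least half the replicates too; inconclusive = mean and replicates disagree; tested in HMLE shEcad cells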;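 also: 0% = median of negative and 100% = median of positive control wells; the first replicate is given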
Yeast UUG start: modulators of yeast start codon fidelity, primary screen, whole organism, S. cerevisiae, single point, plate reader; S. cerevisiae UUG-firefly luciferase reporter, luminescence/redox ratio; activity score, % at 18.7 µM; actives 0.13% (n = 350,000); AID 602363, 2012;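 active = replicate mean at a twofold rise or more, about +100% in these data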;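 also: firefly luciferase made from a UUG start codon reports start codon fidelity; reporter light over untreated wells divided by growth signal over untreated wells; some hits fall short of that in this replicate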
eIF4H FP inh: human eIF4H binding inhibitors, primary screen, translation initiation inhibitor project, biochemical, uHTS, fluorescence polarization | eIF4H fluorescence polarization binding assay | actives 0.94% (n = 290,000) | inhibition, % at 35 µM | AID 2012, 2009;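 active = 50% or more with normal probe brightness, or confirmed in later tests; inconclusive = above 50% with abnormal brightness, or retests that disagree; inactive = below 50% or failed in later tests; about a fifth of its hits are not listed in these tables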;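 also: calls also rest on retests at 20 µM and on dose response follow-up; 0% = protein and probe with vehicle and 100% = probe without protein; strong numbers were not always called active; many hits fall short of the cut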
Rce1 inhib: yeast Rce1p protease inhibitors, primary screen, biochemical, fluorescence, cell-free homogeneous | actives 0.27% (n = 290,000) | calls only | yeast membranes, quenched prenylated peptide cleavage fluorescence | AID 2563, 2010;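 active = fall in fluorescence gain of 50% or more versus controls, with final raw signal at or below 3038400; inconclusive = same 50% fall but final raw signal above 3038400; inactive = fall in fluorescence gain under 50%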;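 also: plate controls were neutral control wells for no effect and wells lacking membranes for full effect; tested at 10 µM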
PABP polyA inh: PABP poly(A) RNA binding inhibitors, primary screen, biochemical, fluorescence polarization, uHTS. inhibition, % at 35 µM. actives 1% (n = 290,000);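 active = 50% or more with normal probe brightness, or confirmed in later tests; inconclusive = above 50% with abnormal brightness, or retests that disagree; inactive = below 50% or failed in later tests; about a fifth of its hits are not listed in these tables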;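 also: calls also rest on retests at 20 µM and on dose response follow-up; controls were probe without protein and protein plus probe with vehicle; some compounds called inactive have numbers as strong as hits; many hits fall short of the cut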
Target sequence (P11940 whole entry, looked up): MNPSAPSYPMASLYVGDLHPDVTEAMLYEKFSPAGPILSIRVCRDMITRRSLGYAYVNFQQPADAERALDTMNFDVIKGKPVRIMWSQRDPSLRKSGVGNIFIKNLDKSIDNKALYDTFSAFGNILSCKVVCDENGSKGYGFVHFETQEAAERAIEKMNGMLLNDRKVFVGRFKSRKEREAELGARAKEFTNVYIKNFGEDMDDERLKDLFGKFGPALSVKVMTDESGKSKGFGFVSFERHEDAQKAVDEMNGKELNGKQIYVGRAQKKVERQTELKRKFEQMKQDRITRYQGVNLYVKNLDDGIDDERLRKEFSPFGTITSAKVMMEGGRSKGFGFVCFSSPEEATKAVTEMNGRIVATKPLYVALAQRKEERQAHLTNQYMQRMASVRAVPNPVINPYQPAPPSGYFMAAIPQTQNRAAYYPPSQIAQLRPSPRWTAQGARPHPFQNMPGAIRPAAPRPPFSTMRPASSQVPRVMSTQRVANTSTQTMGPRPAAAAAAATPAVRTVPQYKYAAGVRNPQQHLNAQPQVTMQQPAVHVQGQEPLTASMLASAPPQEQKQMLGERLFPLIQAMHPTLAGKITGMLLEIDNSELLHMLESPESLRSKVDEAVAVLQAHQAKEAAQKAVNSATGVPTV
eIF4H FP inh retest: also measured in eIF4H FP inh; calls as there; inhibition, %; compound at 20 µM; confirmation average;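 mean of two retest wells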
PABP polyA inh retest: further read-out of PABP polyA inh, marked with its call; inhibition, %; compound at 20 µM; confirmation repeats;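 mean of two retest wells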
MT1-MMP act inh RFP: recorded beside MT1-MMP act inh, whose call it bears; RFP signal change, %; measured here: RFP expression control read;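 0 = vehicle wells; hits needed this value within 50% of zero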
* = called active by the depositor; i = inactive; ? = inconclusive; nt = no result given; & = joins results of further samples. Some of the compounds tested (hit frequency here may not be typical).

SMILES	MT1-MMP act inh	MT1-MMP act inh RFP	Env fusion inh	CSC inhib	Yeast UUG start	eIF4H FP inh	Rce1 inhib	PABP polyA inh	others
Cn1c(=O)c([N+](=O)[O-])c(Oc2ccccc2)c2ccccc21	1	4	-2	nt	nt	16	i	25
COc1ccc(-c2nc(CS(=O)CC(=O)NCCc3ccc(C)cc3)c(C)o2)cc1OC (stereo unspecified)	-2	-3	8	1	-3	-3	i	4
COc1ccc(Cl)cc1C(=O)NC(=S)Nc1ccccc1N1CCOCC1	1	1	-1	33	-10	-15	i	3
CC(OC(=O)CCc1nc2ccccc2c(=O)[nH]1)C(=O)NC1CCCC1 (stereo unspecified)	0	0	-10	-3	nt	-7	i	-4
CC1C(=O)N(Cc2cn(CCC3OCCO3)nn2)CCS(=O)(=O)N1Cc1ccc(-c2ccc(F)cc2)cc1 (stereo unspecified)	-8	-7	6	nt	-15	nt	nt	nt
Cc1ccc(-c2cc(C(=O)Nc3cccnc3)[nH]n2)c(O)c1C	1	-5	-117	7	nt	-12	i	-8
CC(CNC(=O)Cn1cnc2c(OCc3ccccc3)ncnc21)c1ccccc1 (stereo unspecified)	2	3	-27	-9	-22	nt	nt	nt
Clc1nc(-c2ccccc2)cc(-c2ccccc2)n1	-3	-4	-2	-2	17	-3	i	-11
O=C(NCCc1ccccc1)c1cc(=O)[nH]c2ccccc12	-3	-4	0	0	-13	-4	i	-5
COC(=O)c1ccc(S(=O)(=O)N2CCN(C(c3ccccc3)c3ccccc3)CC2)n1C	-2	-3	14	14	31	-7	i	-2
OCC[C@@H]1C[C@H](O)[C@@H](O)[C@]2(OCc3cc(C(F)(F)F)ccc32)O1	4	0	11	nt	9	nt	nt	nt
COc1ccc(C(=O)Nc2ccc3[nH]ncc3c2)cc1OC	0	-1	-48	-12	-2	2	i	6
C=CCC1C=C(C)CC(CC=C)N1 (stereo unspecified)	2	5	8	-9	-13	-10	i	-10
Cc1ccc(C2CC2c2n[nH]c(=S)n2-c2ccc(C)cc2)cc1 (stereo unspecified)	1	-5	nt	-6	-18	5	i	-2
CCOCCc1nnc(NC(=O)C(CC)c2ccccc2)s1 (stereo unspecified)	3	1	-10	-17	-13	-10	i	-6
O=S(=O)(NNc1nccc(C(F)(F)F)n1)c1cccc(Cl)c1Cl	1	8	3	-16	nt	7	i	1
Cc1ccccc1NC(=O)COC(=O)Cc1cccc(C(F)(F)F)c1	1	2	15	-6	-10	-10	i	-6
COc1ccc(CCN(C)C2CCCN(C(=O)CCSC)C2)cc1OC (stereo unspecified)	-1	3	-39	-7	-34	4	i	2
COCCN1C(=O)N(c2ccc(Cl)cc2)C(=O)C1CC(=O)Nc1cc(OC)cc(OC)c1 (stereo unspecified)	0	2	4	3	-1	-4	i	-6
CC(C)C(NC(=O)c1ccccc1NC(=O)C(C)(C)C)C(=O)N1CCOCC1 (stereo unspecified)	4	5	5	-8	-4	nt	nt	nt
O=C(Nc1cccc(Br)c1)c1ccc(CSc2ccccc2)cc1	6	-3	1	-13	-14	0	i	10
O=C(Oc1ccc(C(=S)N2CCOCC2)cc1)c1ccc([N+](=O)[O-])cc1[N+](=O)[O-]	0	7	-13	-13	-9	7	i	13
COc1ccc(C(=O)NCC(=O)N/N=C/c2cn(C)c3ccccc23)cc1OC	-18	-2	-11	-13	6	4	i	-2
O=C(NCC1CCCO1)c1ccc2c(=O)n(Cc3ccc(Cl)cc3)c(=S)[nH]c2c1 (stereo unspecified)	3	0	6	-8	nt	5	nt	-6
Cc1c(CC(=O)NCCCCCC(=O)O)c(=O)oc2cc3c(cc12)CCC(C)(C)O3	5	0	-5	2	-4	0	i	-10

Two records drawn at random from the list so far, as already listed:
SMILES	MT1-MMP act inh	MT1-MMP act inh RFP	Env fusion inh	CSC inhib	Yeast UUG start	eIF4H FP inh	Rce1 inhib	PABP polyA inh	others
Cc1ccccc1NC(=O)COC(=O)Cc1cccc(C(F)(F)F)c1	1	2	15	-6	-10	-10	i	-6
Cc1c(CC(=O)NCCCCCC(=O)O)c(=O)oc2cc3c(cc12)CCC(C)(C)O3	5	0	-5	2	-4	0	i	-10

The list continues.
SMILES	MT1-MMP act inh	MT1-MMP act inh RFP	Env fusion inh	CSC inhib	Yeast UUG start	eIF4H FP inh	Rce1 inhib	PABP polyA inh	others
CC(C)NC(=O)C(c1ccc(F)cc1)N(C(=O)CCC(=O)Nc1ccccn1)C1CCCCC1 (stereo unspecified)	-2	-3	7	2	-2	-8	i	0
O=C(NC(=S)Nc1ccc(N2CCOCC2)cc1)c1ccco1	3	4	-12	4	-13	-7	i	-6
CCCCNC(=O)C1CCN(c2nc(C)cc(C)n2)CC1	0	1	-1	-4	nt	-10	i	-33
CCCn1c2ccccc2c2cc(C(=O)O)ccc21	5	5	26	-8	-7	1	i	4
Cc1ccccc1NC(=O)/C=C1\SC(=O)NC1=O	1	2	2	-5	nt	4	i	10
O=C(Nc1ccccc1Cl)OC1CCCCC1	0	4	-14	8	-21	26	i	13
CCc1cc[n+](-c2nc([O-])sc2C=O)cc1	-35	7	nt	-5	-11	?	i	?
COc1ccccc1NC(=O)CSc1nnnn1C1CCCC1	0	-2	4	nt	-8	3	i	-3
COc1cccc(NC(=O)C(Sc2nnc(-c3ccncc3)n2-c2ccc(Cl)cc2)c2ccccc2)c1 (stereo unspecified)	-13	-15	-2	18	-6	-8	i	-2
Cc1onc(C(=O)NCc2cccs2)c1[N+](=O)[O-]	-3	0	-11	2	nt	0	i	-2
CC1CC(C)CN(S(=O)(=O)c2ccc3c(c2)oc(=O)n3CC(=O)N2CCOCC2)C1 (stereo unspecified)	0	0	-24	5	-11	2	i	-2
CCC(C)c1ccccc1NC(=O)CN(C)CC(=O)Nc1ccccc1SC (stereo unspecified)	0	-2	10	-3	-2	42	i	6
CCOC(=O)c1ccccc1NC(=O)Cc1ccc(OC)c(S(=O)(=O)N2CCOCC2)c1	-5	-1	-1	-1	-8	nt	nt	nt
Cn1c(N)c(S(=O)(=O)N2CCN(C(=O)c3ccco3)CC2)c(=O)n(C)c1=O	0	7	14	nt	nt	-6	i	7
COc1ccccc1/C=C/C=NC1C(=O)N(c2ccccc2)[N+](C)=C1C (stereo unspecified)	2	4	6	-4	-16	2	i	1
CC(C)Oc1ccc(/C(O)=C2/C(=O)C(=O)N(CCN(C)C)C2c2ccco2)cc1 (stereo unspecified)	2	7	nt	-6	-19	8	i	4
CC(CNS(=O)(=O)c1ccccc1)(c1ccccc1)N1CCOCC1 (stereo unspecified)	-6	-2	2	3	-9	-12	nt	-1
Cc1cc(N2CCOCC2)nc(-c2ccccc2O)n1	3	3	20	12	nt	-1	i	4
Cc1noc(NS(=O)(=O)c2ccc(NC(=O)CCC3CCCCC3)cc2)c1C	10	6	-65	3	-13	-2	i	-10
CN(CC(=O)NCCc1ccc(S(N)(=O)=O)cc1)CC(=O)Nc1ccccc1Cl	4	-1	nt	-10	-7	nt	nt	nt
COc1cc(CNCc2cccs2)cc(Br)c1OC	-2	-2	nt	-15	-7	-2	i	9
CC1CCCC(C)N1NC(=O)c1ccc(Cl)c(S(N)(=O)=O)c1 (stereo unspecified)	0	1	nt	nt	-22&1	-4	i	0
Cc1cccc(NC(=S)Nc2ccc(Br)cc2)c1	0	1	nt	nt	-31	0	i	-5
CCN(CC)c1ccc(NC(=O)c2cc(Cl)ccc2OC)cc1	-2	1	nt	49	-13	4	i	0
CSc1sc(C)cc1C=O	-2	4	-11	-6	nt	7	i	-1
Continued.
SMILES	MT1-MMP act inh	MT1-MMP act inh RFP	Env fusion inh	CSC inhib	Yeast UUG start	eIF4H FP inh	Rce1 inhib	PABP polyA inh	others
COc1ccc(OC)c(NC(=O)C(C)OC(=O)c2cc3ccccc3[nH]2)c1 (stereo unspecified)	-6	-21	58*	nt	-20	nt	nt	nt
CCN1CCN(CCCNc2ncnc3nc[nH]c23)CC1	-3	-3	0	-4	-26	24	i	-8
O=C(O)CC(NC(=O)c1sc2ccccc2c1Cl)c1ccc(OC2CCCC2)cc1 (stereo unspecified)	-9	0	10	-7	-6	6	i	11
COc1ccc2nc(SCC(=O)NCc3ccccc3)[nH]c2c1	1	0	0	-7	-15	-2	i	9
CC1CCCCC1NC(=O)CCS(=O)(=O)c1cc2c(cc1Cl)NC(=O)CO2 (stereo unspecified)	-4	0	-4	-6	4	-2	i	0
COc1ccc(C(O)c2nc(-c3cccs3)cs2)cc1 (stereo unspecified)	-1	-5	28	nt	-20	nt	nt	nt
NC(=O)c1ccccc1OCC(=O)NC12CC3CC(CC(C3)C1)C2	-1	2	nt	-14	0	6	i	11
CCOC(=O)Cn1nc(-c2ccc(C)cc2)c2ccccc2c1=O	6	9	9	-10	nt	6	i	-4
c1ccc2[nH]c(NCc3ccc4c(c3)OCO4)nc2c1	-4	-5	21	-6	-12	-7	i	-4
C=CCOc1ccc(/C=C/C(=O)OCC(=O)NCC2CCCO2)cc1 (stereo unspecified)	6	0	-6	-2	nt	nt	i	nt
Cc1nnc(NC(=O)COc2ccc3c(C)cc(=O)oc3c2)s1	1	10	-7	-11	-20	61	i	21	eIF4H FP inh retest=0;PABP polyA inh retest=9
C=CCN(CC=C)C(=O)c1cc(Cl)ccc1[N+](=O)[O-]	9	6	19	-6	-5	7	i	-5
C[C@@H]1CN(c2c(F)c(F)c3c(=O)c(C(=O)O)cn(C4CC4)c3c2F)C[C@H](C)N1	-1	5	-21	nt	-14	8	i	0
Cc1nnc(SCC(=O)N2CC(C)OC(C)C2)n1-c1ccccc1 (stereo unspecified)	0	3	-4	-7	-12	6	nt	-1
CC(C)N(C(=O)c1ccc2nc(-c3ccccc3)c(-c3ccccc3)nc2c1)C(C)C	-8	-9	nt	54	nt	-6	i	-9
CCOCCCNc1nc(-c2ccccc2)nc2ccccc12	-1	-7	8	1	-15	-6	i	-6
CC(=O)Nc1ccc(NC(=O)C2CC(=O)N(c3cccc(Cl)c3)C2)cc1 (stereo unspecified)	2	-1	14	0	nt	-6	i	22
COc1ccc(-n2nc(C(=O)NCC(=O)N3CCN(c4ccccc4F)CC3)c3ccccc3c2=O)cc1	-1	-4	-67	-35	-6	-9	i	-4
CCOc1ccc2nc(N(CCCN(C)C)C(=O)c3ccc(S(=O)(=O)N4CCCC4)cc3)sc2c1	2	6	2	-3	2	-8	i	-2
COc1ccc(C(C)NS(=O)(=O)Cc2ccccc2)cc1 (stereo unspecified)	8	3	-55	0	9	4	i	8
CCOc1ccc(NC(=O)c2ccc(NC(=O)Cc3n[nH]c(=O)c4ccccc34)cc2)cc1	-3	-5	24	-13	-1	-12	i	-3
COc1cc(NC(C)=O)c2ncccc2c1Br	1	2	-11	nt	-11	nt	nt	nt
CC(C)OCCCNC(=O)C1CCC(CNS(=O)(=O)c2ccc(Cl)cc2)CC1 (stereo unspecified)	-5	2	-11	-1	nt	-4	i	1
O=c1c2cc([N+](=O)[O-])cc([N+](=O)[O-])c2[nH]n1-c1ccccc1	12	2	4	43	-10	3	i	3
Cc1cccc(CNC(=O)Cn2ccc3cc(S(=O)(=O)N4CCCC4)ccc32)c1	3	-1	2	-4	-5	-6	i	14

High-throughput results (PubChem)
